Source: PubChem (National Center for Advancing Translational Sciences (NCATS))
HSD17B inhib – blocks hydroxysteroid 17-beta dehydrogenase activity. Q99714. recombinant HSD17B10, NADH fluorescence kinetic; many of its hits are not listed in these tables. Potency, µM (series often up to 57.1 µM), inactives show at the top dose activity change, negative = inhibition, actives largely listed as inhibitors. 75,000 compounds, 7.6% hits; active = well fitted inhibition curve with a large enough effect; inconclusive = small, poorly fitted or top-dose-only effect; inactive = no such curve, though single readings can be large or run the other way;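 also: the protocol describes HADH2 (HSD17B10) and not the HSD17B4 of the title; nearly all actives have a fitted effect of over 70% in size; most hits overshoot -100% by far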
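Enzyme plus compound, 15 min room temperature; substrate mix added (NAD+ 1 mM, beta-hydroxybutyryl-CoA 90 uM final); plates read kinetically for NADH fluorescence. HADH2 was His-tagged, E. coli-derived, 20 nM.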
The depositor's hits bear a star; i = inactive; ? = inconclusive; & = joins results of further samples; [ ] = another dose, or the depositor's remark. % is scaled to controls: 0 for no effect and ±100 for the full control effect; potency is read from the fitted curve at half-maximal effect. Not all compounds are listed; count on the stated rates, not on these rows.

cpd	compound	HSD17B inhib
1	CC1=C(C(=O)OC(C)C)C(C)NC(=O)N1 (stereo not drawn)	4%
2	Clc1ccc(CSC2=NCCCN2)cc1Cl	0%
3	O=C(CCn1c(=O)sc2ccccc21)NCCCn1ccnc1	16%
4	Cc1c(C(=O)OCC(=O)N2c3ccccc3CC2C)oc2ccccc12 (stereo not drawn)	-11%
5	CCN(C(=O)COc1cc(=O)n(C)c2ccccc12)c1cccc(Cl)c1	-3%
6	COc1cc(OC)c2c(c1Cl)O[C@@]1(C2=O)[C@H](C)CC(=O)C[C@@H]1OC	13µM*
7	COc1cccc2[nH]c3c(N4CCC(C)CC4)ncnc3c12	13µM*
8	COc1cccc(C2=NOC(C(=O)Nc3cc(OC)c(OC)c(OC)c3)C2)c1 (stereo not drawn)	6%
9	O=C(NC1CCCCC1)C1CCN(S(=O)(=O)c2cccs2)CC1	6%
10	Cc1cc(NC(=O)CSc2nc3ccsc3c(=O)n2CCCCC(=O)O)no1	3%
11	COc1ccccc1-c1noc(CCC(=O)Nc2cc(C(F)(F)F)ccc2Cl)n1	-18%
12	Cc1cccc(N2CCN(S(=O)(=O)c3ccc4c(c3)CCC(=O)N4)CC2C)c1 (stereo not drawn)	-4%
13	Cn1c(C(=O)NCCN2CCOCC2)cc2c(=O)n(C)c3ccccc3c21	25µM*
14	CN(Cc1c(F)cccc1Cl)c1nnnn1-c1ccccc1	-5%
15	Cn1c(C(=O)NCCN2CCc3ccccc3C2)cc2c(=O)[nH]c3ccccc3c21	?
16	CCn1c(=O)cc(C(=O)OC)sc1=Nc1ccc(F)c(F)c1	?
17	CCCCOC(=O)C1[C@H]2C(=O)N(c3ccccc3CC)C[C@]23C=C[C@H]1O3 (stereo partly drawn)	5%
18	O=C(NC(NCCCN1CCOCC1)(C(F)(F)F)C(F)(F)F)C1CCCCC1	-5%
19	CC(C)[C@@H]1O[C@H](/C=C\c2ccccc2)OCC1(C)C	2%[11.4 µM]
20	COC(=O)c1ccc(N2C(=O)CC(N3CCOCC3)C2=O)cc1 (stereo not drawn)	13%
21	Cc1ccccc1NC(=O)Cn1cccc1	5%
22	CN(C)c1ccc(O)c2c1C[C@@H]1C[C@H]3C(N(C)C)C(=O)C(C(N)=O)=C(O)[C@@]3(O)C(=O)C1=C2O (stereo partly drawn)	-22%
23	COc1cc(C(=O)Nc2ccc3c(c2)C(=O)N(CCC(=O)O)C3=O)cc(OC)c1OC	8%
24	Cc1cc(C)n2ncc(C(=O)NCc3cccnc3)c2n1	25µM*
25	CCNc1nc(SC(C)C(=O)Nc2ccccc2)nc(N2CCOCC2)n1 (stereo not drawn)	6%

Rewritten as labelled records: 2 of the compounds above.
25: CCNc1nc(SC(C)C(=O)Nc2ccccc2)nc(N2CCOCC2)n1 (stereo not drawn)
  HSD17B inhib = 6%
17: CCCCOC(=O)C1[C@H]2C(=O)N(c3ccccc3CC)C[C@]23C=C[C@H]1O3 (stereo partly drawn)
  HSD17B inhib = 5%

Compounds above with a halogen, in the order listed:
cpd	compound	HSD17B inhib
2	Clc1ccc(CSC2=NCCCN2)cc1Cl	0%
5	CCN(C(=O)COc1cc(=O)n(C)c2ccccc12)c1cccc(Cl)c1	-3%
6	COc1cc(OC)c2c(c1Cl)O[C@@]1(C2=O)[C@H](C)CC(=O)C[C@@H]1OC	13µM*
11	COc1ccccc1-c1noc(CCC(=O)Nc2cc(C(F)(F)F)ccc2Cl)n1	-18%
14	CN(Cc1c(F)cccc1Cl)c1nnnn1-c1ccccc1	-5%
16	CCn1c(=O)cc(C(=O)OC)sc1=Nc1ccc(F)c(F)c1	?
18	O=C(NC(NCCCN1CCOCC1)(C(F)(F)F)C(F)(F)F)C1CCCCC1	-5%

The list continues:
cpd	compound	HSD17B inhib
26	COc1cccc(CNc2ccc(S(N)(=O)=O)cc2)c1OC	0%
27	O=C(c1ccccc1)c1ccc(N2CCOCC2)c(NC(=O)c2ccco2)c1	-4%
28	Fc1ccc(Nc2ncncc2-c2ccccc2C(F)(F)F)cc1	?
29	COc1ccc(Nc2ncnc3nc[nH]c23)cc1OC	-1%
30	COc1ccc(NC(=O)c2cc(-c3ccc(C)o3)nc3ccccc23)cc1OC	?
31	CCCNC(=O)NC(=O)CSc1nnc(-c2ccncc2)n1CC	?
32	O=C(Nc1ccc(S(=O)(=O)N2CCOCC2)cc1)C1COc2ccccc2O1 (stereo not drawn)	-4%
33	O=C(CCC(=O)N1CCN(c2ccccn2)CC1)Nc1nnc(C2CCCCC2)s1	-2%
34	N#Cc1c(N)oc(-c2ccco2)c1-c1ccco1	?
35	NC(=O)C1(S(=O)(=O)c2ccccc2)CCCCC1	3%
36	COc1ccccc1NC(=O)NCc1ccc2c(c1)OCO2	2%
37	COCCCNC(=O)CC(NS(=O)(=O)c1ccc(C)cc1)c1ccco1 (stereo not drawn)	-4%
38	COC(=O)c1c(NC(=O)c2ccc(C)o2)sc2c1CCCCC2	25µM*
39	COC(=O)[C@@]1(Cc2ccc(F)cc2)[C@H]2c3cc(C(=O)N4CCCC4)n(CCN4CNCC4=O)c3C[C@H]2CN1C(=O)c1ccccc1	-10%
40	N#Cc1c(C#N)c(-c2ccccc2)n(-c2ccc(C(=O)O)cc2)c1N	-21%
41	CCOC(=O)N1CCC(N2C(=O)c3ccccc3C2Nc2cc(C(=O)OC)cc(C(=O)OC)c2)CC1 (stereo not drawn)	25µM*
42	O=C1C(=O)N(CCCN2CCOCC2)C(c2ccccn2)/C1=C(\O)c1ccc2c(c1)OCCO2 (stereo not drawn)	7%
43	Cc1occc1C(=O)N1CCN(Cc2ccccc2)CC1	0%
44	CC(C)=CCSc1nnc([C@@H](NC(=O)OC(C)(C)C)C(C)C)o1	-1%
45	O=S(=O)(c1ccc2c(c1)OCO2)N1CCN(c2nnnn2-c2ccccc2)CC1	6%
46	COc1ccc2[nH]cc(CCNc3ncnc4ccc(-c5cccnc5)cc34)c2c1	8%
47	O=C(c1ccco1)c1n[nH]nc1-c1ccccc1	-21%
48	CCN(CC)c1c(-c2ccccc2)c2cc(C)ccc2[nH]c1=O	?
49	O=C1CC(c2ccccc2)Oc2ccccc21 (stereo not drawn)	?
50	O=C(Nc1ccccc1)c1ccc(S(=O)(=O)N2CCCC2)cc1	-5%
51	Cc1ccc(C)c(NC(=O)C2CC=CCC2C(=O)O)c1 (stereo not drawn)	9%
52	C=CCN(C1CCCCC1)S(=O)(=O)c1ccc2c(c1)oc(=O)n2C	-3%
53	O=C(COc1ccc(Cl)cc1Br)N1CCN(c2ccccc2)CC1	10%
54	Cc1cccc(N(C)c2cc(C)nc3ncnn23)c1	1%
55	O=C(c1ccccc1-c1nc(-c2ccccc2)no1)N1CCCC1	8%
56	O=C(CSc1nc(-c2ccc(F)cc2)cs1)NC(=O)NCc1ccco1	-25%
57	Cc1ccccc1S(=O)(=O)NC1OC(=O)C(Cl)=C1Cl (stereo not drawn)	4%
58	Cc1cc(NC(=O)CCC(=O)N(CC(=O)NC2CCCC2)Cc2ccc(F)cc2)no1	4%
59	C=CCn1c(-c2ccccc2)nc2nc3ccccc3nc21	i
60	COC(=O)c1cc(COC(=O)c2cccnc2SC)oc1C	4%
61	Cc1csc(NC(=O)CCn2c(=O)oc3ccccc32)n1	11%
62	COc1ccc(CCNC(=O)C2CCN(S(=O)(=O)c3c(C)noc3C)CC2)cc1OC	4%
63	COc1ccccc1NC(=O)C1=C(C)Nc2nnnn2C1c1cc(Br)ccc1OC (stereo not drawn)	15%
64	Nc1ncnc2nc(SCCc3ccccc3)[nH]c12	4%
65	CC1CCC2C(=O)N3C(CCC(C)[C@H]3c3ccccc3Br)C(=O)N2C1c1ccccc1Br (stereo partly drawn)	-1%[11.4 µM]
66	Cc1cccc(N2CCN(C(=O)C3CCCCC3)CC2)c1C	10%
67	COC(=O)CSc1ccc2nnc(-c3ccc(OC)c(OC)c3)n2n1	4%
68	COc1cccc(NC(=O)c2oc3ccccc3c2NC(C)=O)c1	6.3µM*
69	CN(C)C(=O)Oc1ccc[n+](C)c1	0%&-8%
70	O=C(NCc1ccc2c(c1)OCO2)C1CCN(S(=O)(=O)c2cccs2)CC1	-2%
71	CCn1c(=O)n(CC(=O)N(C)Cc2ccccc2)c(=O)c2ccccc21	-29%
72	Cc1oc(-c2ccccc2)nc1C(=O)Nc1nccs1	-28%
73	N#CC1=C(N)OC2=C(C(=O)CCC2)C1Cc1ccccc1 (stereo not drawn)	3%
74	COC(=O)CN(c1ccc(OC)cc1)S(=O)(=O)c1ccc(OC)c(OC)c1	-4%
75	COc1cc(OC)c(NC(=O)CCc2nc(-c3ccc(C)cc3)no2)cc1Cl	-3%

Continued.
cpd	compound	HSD17B inhib
76	COC(=O)[C@@H]1C[C@@]2(O)[C@@H](O)[C@@H](O)[C@@H](O)C[C@H]2N1Cc1ccc(N2CCOCC2)cc1	3%
77	C=C(Br)Cn1c(CCC)nc2ccccc21	4%
78	CN(c1ccc(C(=O)N2CCN(c3ccc(F)cc3)CC2)cc1)S(C)(=O)=O	1%
79	COc1cccc(-c2csc3nc[nH]c(=O)c23)c1	8%
80	O=C(CS(=O)(=O)Cc1ccccc1)N1CCN(Cc2ccc3c(c2)OCO3)CC1	-4%
81	NS(=O)(=O)c1cc(Cl)c(Cl)c(S(N)(=O)=O)c1	-2%[25.6 µM]
82	C=CCSc1nc(O)c(CC)c(=O)n1C(C)CC (stereo not drawn)	-2%
83	O=c1[nH]c(SCc2ccccc2Cl)nc2c1CCC2	-8%
84	Cc1cc(C)n(-c2nc(NCCCO)c3c4c(sc3n2)CCCC4)n1	25µM*
85	CSc1oc(-c2ccccc2)nc1S(=O)(=O)c1ccc(F)cc1	?
86	NC(N)=S	-5%
87	Cc1cc(Nc2ccc(F)cc2F)n2ncnc2n1	6%
88	Cc1oc(-c2ccccc2Cl)nc1CSCC(=O)NC1CC1	-3%
89	CCCn1c(NC(=O)C2COc3ccccc3O2)nc2ccccc21 (stereo not drawn)	-20%
90	O=C(CSc1nc2scc(-c3ccco3)c2c(=O)n1-c1ccccc1)NCC1CCCO1 (stereo not drawn)	?
91	c1cc(NC2CC2)nc(-c2ccoc2)n1	-8%
92	CCn1c(SCC(=O)c2cc(OC)ccc2OC)nnc1C1CC1	-5%
93	Cc1cc(C)n(CCc2nc(-c3cc4ccccc4o3)cs2)n1	-13%
94	O=C(CN1C(=O)NC2(CCCCCC2)C1=O)c1ccc2c(c1)OCCO2	?
95	Cc1csc(NC(=O)c2c(O)c3cccc4c3n(c2=O)CCC4)n1	8%
96	O=C(Nc1c(F)c(F)c(F)c(F)c1F)C1CCCCC1	5%
97	NS(=O)(=O)c1ccc(CNC(=O)c2ccc(Br)o2)cc1	7%
98	COc1ccc(OC)c(C2C(C(=O)c3ccc(C)o3)=C(O)C(=O)N2CCCN2CCOCC2)c1 (stereo not drawn)	-9%
99	Cc1cnc(Nc2nc3ccccc3o2)nc1C(=O)Nc1cccc(C(F)(F)F)c1	4%
100	COc1cccc(N2CCN(C3CC(=O)N(c4ccc(Cl)cc4)C3=O)CC2)c1 (stereo not drawn)	-12%
101	COC(=O)c1ccc(CNC(=O)COc2ccccc2Br)o1	0%
102	Clc1ccc(Cl)c(OCCN2CCOCC2)c1	2%
103	COc1ccc2occ(C(=O)c3ccc(N=C(C)N(C)C)cc3)c2c1	-23%
104	CCN(CC)C(=O)c1cc(-c2ccc(Br)cc2)on1	-3%
105	CC(=O)Nc1cc(C(F)(F)F)ccc1OCC1CCCO1 (stereo not drawn)	-4%
106	CCOC(=O)N1CCC(N2Cc3cccc(C(=O)N4CC(C)CC(C)C4)c3C2=O)CC1 (stereo not drawn)	4%
107	O=C(Nc1ccccc1C(=O)N1CCCC1)C1CCN(c2ncccn2)CC1	-17%
108	CCOC(=O)N1CCC(NC(=O)c2cc3c(=O)n(C)c4ccccc4c3n2C)CC1	?
109	COc1ccc(S(=O)(=O)N(C(C)=O)c2ccc3oc(=O)sc3c2)cc1	?
110	CCCCNC(=O)Nc1ccon1	0%
111	CCN(CC(=O)NC(C)C)C(=O)c1ccc(S(=O)(=O)N(C)c2ccccc2OC)cc1	11%
112	Cc1ccnc(N2CCCC(C(=O)Nc3cc(F)ccc3C)C2)n1 (stereo not drawn)	25µM*
113	O=C(CCC(=O)N1CCCC1)Nc1nnc(C2CCCCC2)s1	12%
114	O=C(CSc1nnc(Cn2c(=O)sc3ccccc32)n1CCc1ccccc1)N1CCCC1	?
115	Cn1cccc1C(=O)N1CCC[C@@]2(CCN(c3ccccc3)C2)C1	0%
116	Cc1cnc(SCCc2ccncc2)nc1C	1%
117	COC(=O)[C@@H]1C[C@@]2(O)[C@H](O)[C@H](O)[C@H](O)C[C@H]2N1Cc1ccc(C(C)(C)C)cc1	4%
118	COc1ccc2c(c1)C1(Nc3ccccc3-c3nc4ccccc4n31)C(=O)N2C (stereo not drawn)	?
119	CSc1nnc(-c2cnccn2)n1Cc1ccccc1	7%
120	CN(N=O)c1ccc(/C=C\c2ccnc3ccccc23)cc1	4µM*
121	COc1ccc(NC(=O)CSc2nnc(-c3ccco3)n2C)cc1	1%
122	O=c1cc2c(n[nH]1)CCCC2	0%
123	Cc1cc(F)ccc1S(=O)(=O)Nc1ccccc1C(=O)Nc1ccc2[nH]c(=O)[nH]c2c1	-23%
124	C=C(C)c1cccc(C(C)(C)NC(=O)N2CCN(c3ccccn3)CC2)c1	25µM*
125	COc1ccc(C2=C(N)c3ccccc3C2=O)cc1	1%
126	CCNC(=O)CSc1nc2ccccc2c(=O)n1CCCOC(C)C	5%
127	CCC1=C2CC[C@H]3C(=O)N(C)C(=O)[C@H]3[C@H]2[C@@]2(C)C(=O)N(CC(=O)OC)C(=O)N2C1=O	7%
128	CC1CCCCN1C(=O)Nc1cccc(Cl)c1 (stereo not drawn)	8%
